Compound activity deposited in PubChem by Southern Research Institute.
Mtb H37Rv = Mycobacterium tuberculosis H37Rv growth inhibition, putative kinase inhibitor library, confirmatory dose response (AID 2842) | M. tuberculosis H37Rv growth inhibition; higher % means a stronger effect; some inactives read as strong as hits | inhibition, % at 10 µg/mL; hits with a dose series show IC90 in µg/mL | 24,000 tested, 5.2% active;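 active = confirmed in a dose series; about a fifth of its hits are not listed in these tables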;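 note: bacteria incubated one week before Alamar blue readout; 0% = bacteria only wells and 100% = bacteria with high antibiotic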
* marks the source's active call; other numbers are inactive results.

A first look (16 entries):
SMILES	Mtb H37Rv
CCOC(=O)c1nn(-c2ccc(C(F)(F)F)cc2)c(=O)c2c(NC(=O)C(C)C)scc12	2%
C=CCN1CC(c2nc3ccccc3n2CCCOc2ccc(Cl)cc2)CC1=O (stereo unspecified)	15%
CCc1cccc(OCC(O)Cn2c(NCCN(C)C)nc3c2c(=O)[nH]c(=O)n3C)c1 (stereo unspecified)	-9%
Fc1cccc2sc(Nc3nnc(-c4ccc(Cl)cc4)o3)nc12	68%
CCc1ccc(NC(=O)c2sc3nc4c(c(-c5ccco5)c3c2N)CCCC4)cc1	0%
COc1ccc(C(=O)NNc2ncnc3c2cnn3-c2ccc(C)c(C)c2)cc1OC	2%
CCSc1nc2c(c(=O)n(C)c(=O)n2C)n1Cc1ccc(F)cc1	-1%
COc1ccc(C(=O)c2cn(Cc3ccccc3OC)c3cc4c(cc3c2=O)OCCO4)cc1	4%
Cc1ccc(Cc2nnc(SCC(=O)Nc3cc(Cl)ccc3C)n(N)c2=O)cc1	3%
O=C1C(Cl)=C(Nc2ccccc2O)C(=O)N1Cc1ccccc1	5.5µg/mL*
O=C(Cc1ccccc1)Nc1nnc(-c2ccc(Br)cc2)s1	6%
Cc1cc(-n2c(C)nc3ccccc3c2=O)ccc1NS(=O)(=O)c1ccc(F)c(C(F)(F)F)c1	-2%
COc1ccccc1Cn1cc2c(-c3ccc(C)c(C)c3)nnc-2c2cc3c(cc21)OCO3	12%
NC(=O)CSC1=NS(=O)(=O)c2cc(Cl)ccc2N1	-15%
Cc1cc(C)c(C(=O)O)c(=O)[nH]1	-9%
CC(=O)C(C)n1c(=O)c2c(nc3n(-c4ccc(C(F)(F)F)cc4)c(C)c(C)n23)n(C)c1=O (stereo unspecified)	2%

This part in full, repeating the preview:
SMILES	Mtb H37Rv
CCOC(=O)c1nn(-c2ccc(C(F)(F)F)cc2)c(=O)c2c(NC(=O)C(C)C)scc12	2%
C=CCN1CC(c2nc3ccccc3n2CCCOc2ccc(Cl)cc2)CC1=O (stereo unspecified)	15%
CCc1cccc(OCC(O)Cn2c(NCCN(C)C)nc3c2c(=O)[nH]c(=O)n3C)c1 (stereo unspecified)	-9%
Fc1cccc2sc(Nc3nnc(-c4ccc(Cl)cc4)o3)nc12	68%
CCc1ccc(NC(=O)c2sc3nc4c(c(-c5ccco5)c3c2N)CCCC4)cc1	0%
COc1ccc(C(=O)NNc2ncnc3c2cnn3-c2ccc(C)c(C)c2)cc1OC	2%
CCSc1nc2c(c(=O)n(C)c(=O)n2C)n1Cc1ccc(F)cc1	-1%
COc1ccc(C(=O)c2cn(Cc3ccccc3OC)c3cc4c(cc3c2=O)OCCO4)cc1	4%
Cc1ccc(Cc2nnc(SCC(=O)Nc3cc(Cl)ccc3C)n(N)c2=O)cc1	3%
O=C1C(Cl)=C(Nc2ccccc2O)C(=O)N1Cc1ccccc1	5.5µg/mL*
O=C(Cc1ccccc1)Nc1nnc(-c2ccc(Br)cc2)s1	6%
Cc1cc(-n2c(C)nc3ccccc3c2=O)ccc1NS(=O)(=O)c1ccc(F)c(C(F)(F)F)c1	-2%
COc1ccccc1Cn1cc2c(-c3ccc(C)c(C)c3)nnc-2c2cc3c(cc21)OCO3	12%
NC(=O)CSC1=NS(=O)(=O)c2cc(Cl)ccc2N1	-15%
Cc1cc(C)c(C(=O)O)c(=O)[nH]1	-9%
CC(=O)C(C)n1c(=O)c2c(nc3n(-c4ccc(C(F)(F)F)cc4)c(C)c(C)n23)n(C)c1=O (stereo unspecified)	2%
COC(=O)c1ccccc1-c1ccc(/C=C(\C#N)c2nc(-c3cccs3)cs2)o1	-2%
O=C(CN1C(=O)CC(c2ccccc2)Sc2ccccc21)Nc1ccccc1F (stereo unspecified)	13%
CCC1CCCCN1S(=O)(=O)c1ccc(C(=O)Nc2nc3c(s2)CCCC3)cc1 (stereo unspecified)	6%
CCOC(=O)COc1cccc2c(=O)n(CC(=O)Nc3cccc(F)c3)ccc12	-10%
CCOC(=O)c1c2c3c(cccc3[nH]c1=O)C(=O)c1ccccc1-2	-4%
COc1ccccc1NC(=O)CSc1ccc2nnc(-c3ccncc3)n2n1	-11%
CCC(C)Nc1nc2c(c(=O)[nH]c(=O)n2C)n1CC(O)COc1ccc(Cl)cc1 (stereo unspecified)	2%
COc1cc(/C=N/Nc2nc3c(c(=O)[nH]c(=O)n3C)n2CC(C)O)ccc1O (stereo unspecified)	-11%
COc1ccc(-c2nnc3ccc(SCC(=O)Nc4nccs4)nn23)cc1	-1%
COc1ccc(-c2nnc3ccc(SCC(=O)Nc4ccccc4)nn23)cc1	-4%
CCN1C(=O)c2cccc3c(NC(=O)c4ccc(-c5nc6ccccc6s5)s4)ccc1c23	1%
CC(C)C(=O)Nc1nnc(-c2ccc(Br)cc2)o1	1.2µg/mL*
O=C(CSc1cn(Cc2ccc(F)cc2)c2ccccc12)Nc1nc2ccccc2s1	60%
COc1cc(OC)cc(C(=O)N(CCCn2ccnc2)c2nc3c(C)cc(C)cc3s2)c1	10µg/mL*
O=C(Nc1ccc(F)cc1)c1oc2ccccc2c1NC(=O)c1cc2ccccc2oc1=O	6%
NC(=O)c1nc(-c2ccncc2)nc2c1[nH]c(=O)n2-c1ccc(F)cc1	-7%
Cc1csc(NC(=O)CSc2nnc(C)c(=O)n2N)n1	-6%
CCn1c(SCC(=O)Nc2cc(Cl)ccc2OC)nc2c(c1=O)SC(C)C2 (stereo unspecified)	10%
CCOC(=O)c1nn(-c2ccc(OC)cc2)c(=O)c2c(NC(=O)Cc3ccccc3)scc12	6%
CCOCCn1c(SCC(=O)OC)nc2c1c(=O)[nH]c(=O)n2C	-4%
CCOC(=O)C(CC)Sc1nnc2[nH]c(=O)c(C)c(C)n12 (stereo unspecified)	17%
O=c1[nH]cc(S(=O)(=O)Nc2ccc(Oc3ccccc3)cc2)c(=O)[nH]1	-5%
O=C(CN1C(=O)c2cccc3cccc(c23)C1=O)Nc1ccc2c(c1)OCO2	-1%
COc1ccc(Nc2nc(-c3ccccc3)c(C(=O)Nc3cccnc3)s2)cc1	18%
CCOc1cccc(NC(=O)c2ccc(S(=O)(=O)N(C)C)cc2)c1	3%
Cc1cc(O)c(C(c2cccnc2)N2CCC(C)CC2)c(=O)n1Cc1ccco1 (stereo unspecified)	1%
O=C(Cn1cnc2c(nnn2-c2cccc(F)c2)c1=O)NC1CCCCC1	10%
Cc1cc(C)c2nc(C(F)(F)F)nc(NC(C)CCc3ccccc3)c2c1 (stereo unspecified)	7.6µg/mL*
CCCCN(C)S(=O)(=O)c1ccc(C(=O)Nc2cc(C)ccc2C)cc1	5%
NC(=O)CSc1nc2[nH]ncc2c(=O)[nH]1	-8%
Cc1cn(C2C=CC(CO)O2)c(=O)[nH]c1=O (stereo unspecified)	-7%
Cc1ccc(C(c2sc3ncnn3c2O)N2CC(C)CC(C)C2)cc1 (stereo unspecified)	2%
Cc1c(C)n(Cc2ccco2)c2ncnc(NCCC(=O)O)c12	-21%
CC1C(=O)N2CCCc3cc(NC(=O)C(=O)NCc4ccccc4Cl)cc1c32 (stereo unspecified)	25%
CCOC(=O)c1oc2ccccc2c1NC(=O)c1ccc([N+](=O)[O-])cc1	-7%
CC(=O)Oc1ccc(NC(=O)CC2SC(N)=NC2=O)cc1 (stereo unspecified)	5%
COc1ccc(CCNC(=O)C(=O)Nc2ccc(F)c(F)c2)cc1	4%
O=C(Nc1ccccc1Cl)c1cnc2sccn2c1=O	-1%
COc1ccc(C(c2sc3ncnn3c2O)N2CCN(CCO)CC2)cc1 (stereo unspecified)	2%
CC(=O)O/N=C/c1c(Nc2ccc(C)cc2)nc2c(C)cccn2c1=O	9%
O=C(O)CCC(Nc1ncnc2ccccc12)C(=O)O (stereo unspecified)	-16%
COc1ccc(N2CC(NC(=O)Nc3ccc(F)cc3)CC2=O)cc1OC (stereo unspecified)	0%
O=C(CC1Sc2ccc(C(F)(F)F)cc2NC1=O)Nc1ccc(Br)cc1 (stereo unspecified)	-5%
Cc1ccc(NC(=O)c2oc3ccccc3c2NC(=O)Cc2cccc3ccccc23)cc1C	8%

(list continues)
SMILES	Mtb H37Rv
O=C(CCCN1C(=O)c2cccc3cccc(c23)C1=O)Nc1ccc(N2CCOCC2)cc1	-6%
CCOC(=O)c1nn(-c2ccc(F)cc2)c(=O)c2c(NC(=O)c3ccc4ccccc4c3)scc12	2%
Cc1cc(C)nc(SCc2cc(=O)c(OC(=O)c3ccc(F)cc3)co2)n1	-11%
COc1cccc2sc(N(CCCn3ccnc3)C(=O)c3ccco3)nc12	12µg/mL*
CCOC(=O)c1ccc(NC(=O)CSc2nnc(C)c(=O)[nH]2)cc1	71%
CCOC(=O)c1nn(-c2ccc(F)cc2)c(=O)c2c(NC(=O)c3ccc(F)c(F)c3)scc12	-8%
COc1cccc(/C=N/NC(=O)c2cc3cc([N+](=O)[O-])ccc3s2)c1O	12%
N#C/C(=C\Nc1ccc(S(=O)(=O)N=C(N)N)cc1)c1nc(-c2ccc([N+](=O)[O-])cc2)cs1	5%
CN1C(=O)c2cccc(NC(=O)c3ccc(C(C)(C)C)cc3)c2C1=O	-5%
O=C(CSc1nc2[nH]ncc2c(=O)[nH]1)Nc1nccs1	-4%
COc1ccc(-c2cc(=O)c3cc(OC(=O)c4ccccc4)ccc3o2)cc1	-2%
CC(=O)c1sc(NC(=O)c2ccc([N+](=O)[O-])cc2)nc1C	-6%
CC(=O)c1sc(NC(=O)C2COc3ccccc3O2)nc1C (stereo unspecified)	-15%
Cc1ccc(C(c2sc3nc(C)nn3c2O)N2CCC(C(N)=O)CC2)cc1 (stereo unspecified)	6%
COc1ccc(C(=O)c2sc3nc4c(cc3c2N)C(=O)CCC4)cc1	-2%
FC(F)(F)c1cccc(-c2nnn3c2nc(NCc2ccc(Cl)cc2Cl)c2ccccc23)c1	-6%
COC(=O)c1c(NC(=O)c2sc3ccccc3c2Cl)sc2c1CC(C)(C)NC2(C)C	10%
COc1ccc(C(=O)Nc2ccc(-c3cn4nc(OC)ccc4n3)cc2)c(OC)c1	17%
CCOC(=O)C(C)Oc1cccc2c(=O)n(CC(=O)Nc3ccccc3)ccc12 (stereo unspecified)	2%
C=CCN(c1ccc(C(=O)O)cc1)S(=O)(=O)c1ccc(/C=C/C(=O)O)cc1	-15%
COc1cccc(OC)c1C(=O)Nc1nc2ccc3nc(SC)sc3c2s1	6%
CC(C(=O)O)N1C(=O)/C(=C2/C(=O)N(Cc3ccccc3)c3ccccc32)SC1=S (stereo unspecified)	-7%
CCOC(=O)c1nn(-c2ccc(Cl)cc2)c(=O)c2c(NC(=O)c3cc(OCC)c(OCC)c(OCC)c3)scc12	3%
O=C(Nc1ccc(Cl)c(Cl)c1)c1cnc2n(c1=O)CCS2	7%
CC1=CC(=C2C(=O)NC(=S)NC2=O)C=C(C)N1Cc1ccco1	-4%
O=C(Nc1ccc(F)c([N+](=O)[O-])c1)c1c[nH]c(=O)n(-c2ccc(F)cc2)c1=O	17%
COc1cc(/C=N/Nc2nc(=O)[nH]nc2C)ccc1OCc1ccc(Cl)c(Cl)c1	44%
CCS(=O)(=O)c1cccc(C(=O)Nc2nc3c(OC)cccc3s2)c1	76%
COC(=O)c1ccc(Nc2nc(-c3ccccc3)c3cc(Br)ccc3n2)cc1	12%
O=C(COc1ccc2ccccc2c1)NCC1COC2(CCCCC2)O1 (stereo unspecified)	20%
O=C1N=c2ccccc2=C1c1sc(N2CCN(c3ccccc3)CC2)nc1O	2%
COc1ccccc1CNC(=O)NC1CC(=O)N(c2ccc(C)cc2)C1 (stereo unspecified)	5%
CN(C)c1ccc(C(=O)Nc2nnc(-c3cc(Cl)ccc3Cl)o2)cc1	58%
Nc1nc(SCC(=O)Nc2ccccc2F)[nH]c(=O)c1NC(=O)c1ccc(Br)o1	-6%
O=C(Cn1cnc2c(nnn2Cc2ccc(F)cc2)c1=O)Nc1ccccc1C(F)(F)F	-2%
Nc1nc(SCC(=O)Nc2nc3ccccc3s2)[nH]c(=O)c1NC(=O)c1ccc(F)c(F)c1	-2%
CC1CCCN(c2nc3c(c(=O)[nH]c(=O)n3C)n2CCSc2nc3ccccc3o2)C1 (stereo unspecified)	8%
Cc1nnc(SCC(=O)N2CCCCCC2)[nH]c1=O	-4%
CCc1ccc(-c2nnc3c4cc5c(cc4n(Cc4cccc(F)c4)cc2-3)OCCO5)cc1	65%
O=C(CCSc1ccccc1)Nc1nc2ccc(F)cc2s1	0%
Cc1ccc(NC(=O)c2cnc3sccn3c2=O)cc1F	-10%
CC(C)n1c(N/N=C/c2cccnc2)nc2c1c(=O)[nH]c(=O)n2C	8%
COc1ccc(-c2nc(SCC(=O)NCCc3ccccc3)c3c(=O)n(C)c(=O)n(C)c3n2)cc1	-14%
Cc1ccc(C(=O)CSc2nnc3ccc(-c4cccnc4)nn23)cc1	-7%
CC(C)Oc1ccc(C(=O)Nc2nc(-c3nc4ccccc4s3)cs2)cc1	8%
COC(=O)c1ccc2nc(NC(=O)c3ccc(Br)s3)sc2c1	6%
Cc1nc2c(ccc3nc(NC(=O)C(c4ccccc4)c4ccccc4)sc32)s1	55%
O=C(Nc1c(C(=O)Nc2ccc([N+](=O)[O-])cc2)oc2ccccc12)c1cccc(C(F)(F)F)c1	0%
NC(=O)c1cc2c(ccc3ccccc32)oc1=Nc1cc(F)ccc1F	79%
CCCSc1nc2c(c(=O)[nH]c(=O)n2C)n1CCOCC	-13%
Cn1c(NC(=O)c2ccc(-c3ccccc3)cc2)cc(=O)n(C)c1=O	-8%
O=C(CSc1nnc2ccc(-c3cccnc3)nn12)c1cccc([N+](=O)[O-])c1	-12%
Cc1ccc(NS(=O)(=O)c2c[nH]c(=O)[nH]c2=O)cc1C	-3%
CC1=C(C(=O)Nc2ccc(Cl)cc2)C(c2cccs2)NC(=O)N1 (stereo unspecified)	9%
Clc1ccc(CSc2ccc3nnc(-c4ccccn4)n3n2)c(Cl)c1	5%

Only part of the results is shown; the hit share may differ from the screen's.
